From PubChem
Ran importin: RanGTP/importin-beta interaction disruptors – biochemical, CFP-Ran/YFP-importin-beta FRET, RCC1, cell-free, primary screen (AID 434961); CFP-Ran/YFP-importin-beta FRET, cell-free; hits give high values; inhibition, %; 7,700 tested, 0.2% active;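 active = more than half of the replicate wells above 15% inhibition; inconclusive = exactly half above it; inactive = fewer than half above it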;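 note: 0% = DMSO wells and 100% inhibition = RanGDP control wells on each plate; stock of unstated strength diluted about 400-fold; mean of two wells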
Active calls of the source: *; ? = inconclusive. Some of the compounds tested; the hit share may differ from the screen's.

entry | molecule | Ran importin
1 | C[C@H](CO)N1C[C@H](C)[C@@H](CN(C)C(=O)CCC(F)(F)F)OCCCC[C@H](C)Oc2ccc(NS(=O)(=O)c3cccs3)cc2C1=O | ?
2 | C[C@H]1CCCCO[C@H](CN(C)C(=O)C2CCCCC2)[C@@H](C)CN([C@@H](C)CO)C(=O)c2cc(NS(=O)(=O)c3cccs3)ccc2O1 | 2.3
3 | C[C@H](CO)N1C[C@H](C)[C@H](CN(C)Cc2ccc(C(F)(F)F)cc2)Oc2c(NS(=O)(=O)c3ccc(F)cc3)cccc2C1=O | -0.7
4 | C[C@@H]1CCCCO[C@H](CN(C)C(=O)c2ccncc2)[C@@H](C)CN([C@H](C)CO)C(=O)c2cc(NC(=O)CCC(F)(F)F)ccc2O1 | ?
5 | C[C@H]1CN([C@@H](C)CO)C(=O)Cc2cc(NC(=O)NC3CCCCC3)ccc2O[C@@H]1CN(C)C(=O)Nc1cccc2ccccc12 | -3.5
6 | Cc1noc(C)c1S(=O)(=O)N(C)C[C@@H]1OCCCC[C@@H](C)Oc2ccc(N(C)C)cc2C(=O)N([C@@H](C)CO)C[C@@H]1C | 3.9
7 | C[C@H](CO)N1C[C@H](C)[C@@H](CN(C)C(=O)Nc2ccc3c(c2)OCO3)Oc2ccc(NC(=O)Nc3ccc4c(c3)OCO4)cc2CC1=O | -4.2
8 | Cc1noc(C)c1NC(=O)N(C)C[C@@H]1Oc2ccc(NS(=O)(=O)c3cn(C)cn3)cc2CC(=O)N([C@H](C)CO)C[C@H]1C | -1.4
9 | Cc1noc(C)c1S(=O)(=O)Nc1ccc2c(c1)C(=O)N([C@@H](C)CO)C[C@H](C)[C@H](CN(C)C(=O)Cc1ccccc1)OCCCC[C@@H](C)O2 | -0.2
10 | CC(C)NC(=O)N(C)C[C@@H]1OCCCC[C@@H](C)Oc2ccc(NC(=O)CCCN(C)C)cc2C(=O)N([C@@H](C)CO)C[C@H]1C | -3.2
11 | C[C@H](CO)N1C[C@H](C)[C@@H](CN(C)C(=O)NC2CCCCC2)Oc2ccc(NC(=O)Cc3cn(C)c4ccccc34)cc2CC1=O | 1.8
12 | C[C@@H]1CN([C@H](C)CO)C(=O)c2cc(NS(=O)(=O)c3ccc(Cl)cc3)ccc2O[C@H]1CN(C)C(=O)Nc1ccc(F)cc1 | 2.0
13 | Cc1noc(C)c1S(=O)(=O)N(C)C[C@H]1OCCCC[C@H](C)Oc2ccc(N(C)C)cc2C(=O)N([C@H](C)CO)C[C@@H]1C | 10.5
14 | C[C@H]1CN([C@@H](C)CO)C(=O)Cc2cc(NS(=O)(=O)c3cccs3)ccc2O[C@H]1CN(C)Cc1ccccc1 | 2.6
15 | C[C@@H]1CN([C@@H](C)CO)C(=O)c2cc(NC(=O)Cc3ccccc3)ccc2O[C@@H](C)CCCCO[C@H]1CN(C)S(=O)(=O)c1cccs1 | -0.8
16 | CC(C)NC(=O)Nc1ccc2c(c1)C(=O)N([C@H](C)CO)C[C@@H](C)[C@H](CN(C)Cc1ccccc1)OCCCC[C@H](C)O2 | -3.5
17 | CC(C)NC(=O)Nc1ccc2c(c1)CC(=O)N([C@H](C)CO)C[C@H](C)[C@@H](CN(C)Cc1ccc(-c3ccccc3)cc1)O2 | -1.9
18 | COc1ccc(CN(C)C[C@@H]2Oc3ccc(NC(=O)Nc4cccc5ccccc45)cc3C(=O)N([C@@H](C)CO)C[C@H]2C)cc1 | 0.2
19 | C[C@H](CO)N1C[C@H](C)[C@@H](CN(C)C(=O)NC2CCCCC2)Oc2ccc(NC(=O)Cc3cn(C)c4ccccc34)cc2C1=O | 0.3
20 | C[C@H](CO)N1C[C@H](C)[C@H](CN(C)S(=O)(=O)c2ccc(Cl)cc2)OCc2cnnn2CCCC1=O | -2.1
21 | C[C@@H]1CN([C@H](C)CO)C(=O)CCCn2cc(nn2)CO[C@H]1CN(C)C(=O)c1ccc(N2CCN(C)CC2)cc1 | -5.2
22 | C[C@H](CO)N1C[C@H](C)[C@@H](CN(C)Cc2ccc3c(c2)OCO3)Oc2ccc(NC(=O)C3CC3)cc2CC1=O | 1.8
23 | C[C@@H]1CN([C@@H](C)CO)C(=O)c2cccc(NC(=O)c3cnccn3)c2O[C@@H]1CN(C)C(=O)Nc1ccccc1 | -1.3
24 | C[C@@H]1CN([C@H](C)CO)C(=O)c2cc(NS(=O)(=O)c3cn(C)cn3)ccc2O[C@@H]1CN(C)S(=O)(=O)c1cn(C)cn1 | -3.0
25 | C[C@H](CO)N1C[C@H](C)[C@@H](CN(C)C)Oc2c(NC(=O)C3CC3)cccc2C1=O | -2.7
26 | C[C@@H]1CN([C@@H](C)CO)C(=O)c2cccc(NS(=O)(=O)c3cccs3)c2O[C@H]1CN(C)C | 0.9
27 | C[C@@H]1CCCCO[C@@H](CN(C)Cc2ccccc2)[C@H](C)CN([C@@H](C)CO)C(=O)c2cc(NC(=O)Nc3ccc4c(c3)OCO4)ccc2O1 | 5.0
28 | C[C@@H]1CN([C@H](C)CO)C(=O)Cc2cc(NC(=O)NC3CCCCC3)ccc2O[C@@H]1CN(C)C(=O)NC1CCCCC1 | -5.0
29 | C[C@@H]1CN([C@@H](C)CO)C(=O)Cc2cc(NC(=O)Cn3cnnn3)ccc2O[C@H]1CN(C)C | ?
30 | COc1ccc(CN(C)C[C@H]2Oc3c(NS(=O)(=O)c4ccc(Cl)cc4)cccc3C(=O)N([C@H](C)CO)C[C@@H]2C)cc1 | -1.6
31 | CNC[C@@H]1Oc2c(NC(=O)c3nc4ccccc4s3)cccc2C(=O)N([C@@H](C)CO)C[C@H]1C | 2.1
32 | C[C@H](CO)N1C[C@H](C)[C@@H](CN(C)C)Oc2ccc(NS(=O)(=O)c3ccc(Cl)cc3)cc2C1=O | -0.4
33 | C[C@@H]1CN([C@@H](C)CO)C(=O)c2cc(NC(=O)C3CC3)ccc2O[C@H]1CN(C)C(=O)Nc1ccc(C(F)(F)F)cc1 | -5.7
34 | CNC[C@H]1Oc2c(NC(=O)C3CCOCC3)cccc2C(=O)N([C@H](C)CO)C[C@@H]1C | 0.8
35 | CC(C)NC(=O)N(C)C[C@@H]1OCCCC[C@@H](C)Oc2ccc(NC(=O)Nc3ccccc3)cc2C(=O)N([C@@H](C)CO)C[C@@H]1C | ?
36 | Cc1noc(C)c1S(=O)(=O)N(C)C[C@@H]1Oc2ccc(NS(=O)(=O)c3cccs3)cc2CC(=O)N([C@@H](C)CO)C[C@H]1C | 6.3
37 | C[C@@H]1CN([C@H](C)CO)C(=O)c2cc(NS(=O)(=O)c3ccccc3)ccc2O[C@@H]1CN(C)C | -2.6
38 | C[C@H](CO)N1C[C@H](C)[C@@H](CN(C)S(=O)(=O)c2cn(C)cn2)Oc2c(NC(=O)Nc3ccc(C(F)(F)F)cc3)cccc2C1=O | 7.8
39 | Cc1cc(C(=O)Nc2cccc3c2O[C@@H](CN(C)C(=O)NC2CCCCC2)[C@H](C)CN([C@@H](C)CO)C3=O)n(C)n1 | -3.8
40 | C[C@@H]1CN([C@H](C)CO)C(=O)c2cc(NS(C)(=O)=O)ccc2O[C@@H](C)CCCCO[C@H]1CN(C)S(=O)(=O)c1ccccc1 | -4.0

Structural class, the compounds so far containing an aryl methoxy group
entry | molecule | Ran importin
18 | COc1ccc(CN(C)C[C@@H]2Oc3ccc(NC(=O)Nc4cccc5ccccc45)cc3C(=O)N([C@@H](C)CO)C[C@H]2C)cc1 | 0.2
30 | COc1ccc(CN(C)C[C@H]2Oc3c(NS(=O)(=O)c4ccc(Cl)cc4)cccc3C(=O)N([C@H](C)CO)C[C@@H]2C)cc1 | -1.6

Further records follow:
entry | molecule | Ran importin
41 | C[C@H](CO)N1C[C@H](C)[C@H](CN(C)C(=O)Nc2ccc3c(c2)OCCO3)OCc2cnnn2CCCC1=O | -1.1
42 | C[C@H]1CN([C@@H](C)CO)C(=O)c2cccc(NC(=O)NC3CCCCC3)c2O[C@H]1CN(C)Cc1ccc(C(=O)O)cc1 | 2.8
43 | Cc1noc(C)c1NC(=O)N(C)C[C@H]1Oc2ccc(NC(=O)Nc3ccc4c(c3)OCO4)cc2C(=O)N([C@H](C)CO)C[C@@H]1C | 3.2
44 | C[C@H](CO)N1C[C@H](C)[C@@H](CN(C)CC2CC2)Oc2ccc(NC(=O)Cc3cn(C)c4ccccc34)cc2CC1=O | 0.9
45 | Cc1noc(C)c1S(=O)(=O)Nc1ccc2c(c1)CC(=O)N([C@H](C)CO)C[C@H](C)[C@H](CN(C)C(=O)Nc1ccc(F)cc1)O2 | -4.2
46 | C[C@H](CO)N1C[C@H](C)[C@@H](CN(C)C(=O)Nc2ccccc2)Oc2c(NC(=O)C3CCOCC3)cccc2C1=O | 4.1
47 | C[C@@H]1CN([C@H](C)CO)C(=O)c2cccc(NC(=O)c3nc4ccccc4s3)c2O[C@H]1CN(C)S(=O)(=O)c1cn(C)cn1 | 1.5
48 | Cc1noc(C)c1S(=O)(=O)Nc1cccc2c1O[C@@H](CN(C)CC1CC1)[C@@H](C)CN([C@@H](C)CO)C2=O | 0.2
49 | C[C@H](CO)N1C[C@H](C)[C@@H](CN(C)C(=O)Nc2ccc(F)cc2)Oc2c(NC(=O)Nc3ccc(F)cc3)cccc2C1=O | 3.4
50 | CC(C)NC(=O)N(C)C[C@@H]1OCCCC[C@H](C)Oc2ccc(NS(=O)(=O)c3ccccc3)cc2C(=O)N([C@H](C)CO)C[C@@H]1C | 4.0
51 | C[C@H](CO)N1C[C@H](C)[C@H](CN(C)Cc2ccccc2)OCc2cn(nn2)CCCC1=O | -3.1
52 | C[C@@H]1CN([C@@H](C)CO)C(=O)c2cc(NC(=O)Nc3cccc4ccccc34)ccc2O[C@H]1CN(C)C(=O)Nc1cccc2ccccc12 | -2.2
53 | Cc1noc(C)c1NC(=O)N(C)C[C@H]1Oc2c(NC(=O)c3nc4ccccc4s3)cccc2C(=O)N([C@H](C)CO)C[C@@H]1C | -0.2
54 | COc1ccc(CN(C)C[C@H]2Oc3ccc(NC(=O)Nc4cccc5ccccc45)cc3CC(=O)N([C@@H](C)CO)C[C@H]2C)cc1 | 8.2
55 | C[C@@H]1CN([C@@H](C)CO)C(=O)Cc2cc(NS(=O)(=O)c3cn(C)cn3)ccc2O[C@@H]1CN(C)C(=O)Nc1ccc(F)cc1 | -4.4
56 | CNC[C@@H]1Oc2ccc(NS(=O)(=O)c3ccccc3)cc2CC(=O)N([C@H](C)CO)C[C@H]1C | 3.6
57 | C[C@H](CO)N1C[C@H](C)[C@@H](CN(C)C(=O)Nc2ccc(F)cc2)Oc2c(NC(=O)c3ccc(-c4nccs4)cc3)cccc2C1=O | 5.0
58 | Cc1noc(C)c1NC(=O)N(C)C[C@@H]1Oc2ccc(NC(=O)C3CC3)cc2C(=O)N([C@H](C)CO)C[C@@H]1C | -1.9
59 | CNC[C@H]1Oc2ccc(NC(=O)Nc3ccc(OC)cc3)cc2C(=O)N([C@@H](C)CO)C[C@H]1C | 4.0
60 | COc1ccc(CN(C)C[C@@H]2Oc3c(NS(=O)(=O)c4cn(C)cn4)cccc3C(=O)N([C@H](C)CO)C[C@@H]2C)cc1 | -1.9
61 | COc1ccc(S(=O)(=O)N(C)C[C@H]2Oc3ccc(NC(=O)NC(C)C)cc3C(=O)N([C@H](C)CO)C[C@@H]2C)cc1 | 0.7
62 | C[C@H](CO)N1C[C@H](C)[C@@H](CN(C)C(=O)Nc2ccc(F)cc2)Oc2ccc(N(C)C)cc2C1=O | -4.2
63 | C[C@H]1CN([C@@H](C)CO)C(=O)CCCn2cc(nn2)CO[C@@H]1CN(C)C(=O)Nc1ccc(N2CCCCC2)cc1 | -0.1
64 | CNC[C@H]1OCCCC[C@@H](C)Oc2ccc(NC(=O)C3CCCCC3)cc2C(=O)N([C@@H](C)CO)C[C@@H]1C | 3.0
65 | C[C@@H]1CN([C@H](C)CO)C(=O)c2cc(NS(=O)(=O)c3cccs3)ccc2O[C@H]1CN(C)Cc1ccc(-c2ccccc2)cc1 | 2.6
66 | C[C@H](CO)N1C[C@H](C)[C@@H](CN(C)CC2CC2)Oc2ccc(NC(=O)Nc3ccc4c(c3)OCO4)cc2CC1=O | 0.8
67 | CNC[C@H]1OCCCC[C@@H](C)Oc2ccc(NC(=O)Nc3ccccc3)cc2C(=O)N([C@@H](C)CO)C[C@@H]1C | -4.4
68 | C[C@H]1CN([C@@H](C)CO)C(=O)CCCn2cc(nn2)CO[C@H]1CN(C)S(=O)(=O)c1cccs1 | 0.0
69 | C[C@@H]1CN([C@H](C)CO)C(=O)c2cccc(NS(=O)(=O)c3cn(C)cn3)c2O[C@@H]1CN(C)CC1CC1 | 0.2
70 | C[C@H](CO)N1C[C@H](C)[C@@H](CN(C)C(=O)Nc2ccc(F)cc2)Oc2c(NC(=O)c3cnccn3)cccc2C1=O | 0.8
71 | C[C@H](CO)N1C[C@H](C)[C@H](CN(C)C(=O)NC2CCCCC2)Oc2ccc(NS(C)(=O)=O)cc2C1=O | -3.9
72 | CC(C)NC(=O)N(C)C[C@@H]1OCCCC[C@@H](C)Oc2ccc(N(C)C)cc2C(=O)N([C@@H](C)CO)C[C@H]1C | -1.9
73 | C[C@@H]1CCCCO[C@@H](CN(C)C)[C@H](C)CN([C@@H](C)CO)C(=O)c2cc(NC(=O)Nc3cccc4ccccc34)ccc2O1 | -1.6
74 | CC(C)NC(=O)Nc1ccc2c(c1)C(=O)N([C@@H](C)CO)C[C@H](C)[C@@H](CN(C)S(=O)(=O)c1cn(C)cn1)OCCCC[C@H](C)O2 | ?
75 | CC(C)NC(=O)N(C)C[C@@H]1OCCCC[C@H](C)Oc2ccc(NC(=O)CCC(F)(F)F)cc2C(=O)N([C@@H](C)CO)C[C@@H]1C | -0.2

Structures above with a Cl atom (four):
entry | molecule | Ran importin
12 | C[C@@H]1CN([C@H](C)CO)C(=O)c2cc(NS(=O)(=O)c3ccc(Cl)cc3)ccc2O[C@H]1CN(C)C(=O)Nc1ccc(F)cc1 | 2.0
20 | C[C@H](CO)N1C[C@H](C)[C@H](CN(C)S(=O)(=O)c2ccc(Cl)cc2)OCc2cnnn2CCCC1=O | -2.1
30 | COc1ccc(CN(C)C[C@H]2Oc3c(NS(=O)(=O)c4ccc(Cl)cc4)cccc3C(=O)N([C@H](C)CO)C[C@@H]2C)cc1 | -1.6
32 | C[C@H](CO)N1C[C@H](C)[C@@H](CN(C)C)Oc2ccc(NS(=O)(=O)c3ccc(Cl)cc3)cc2C1=O | -0.4
